AmpC nodet inh: Promiscuous and Specific Inhibitors of AmpC Beta-Lactamase (assay without detergent); AmpC nitrocefin hydrolysis, absorbance 480 nm, no detergent; potencies from a single point are estimates; Potency, µM (highest dose often 28.7 µM), without a hit: at the top dose activity change, negative = inhibition; 71,000 compounds, 1.8% hits; P00811; AID 585, 2007; active = falling curve, for most hits resting on a single point; inconclusive = weak or doubtful change; inactive = flat or rising curve; also: % of control where 0% means no effect; about half of the hits show no inhibition at the top dose; a quarter of the inactives give rising signals
Target sequence (P00811 whole entry, looked up): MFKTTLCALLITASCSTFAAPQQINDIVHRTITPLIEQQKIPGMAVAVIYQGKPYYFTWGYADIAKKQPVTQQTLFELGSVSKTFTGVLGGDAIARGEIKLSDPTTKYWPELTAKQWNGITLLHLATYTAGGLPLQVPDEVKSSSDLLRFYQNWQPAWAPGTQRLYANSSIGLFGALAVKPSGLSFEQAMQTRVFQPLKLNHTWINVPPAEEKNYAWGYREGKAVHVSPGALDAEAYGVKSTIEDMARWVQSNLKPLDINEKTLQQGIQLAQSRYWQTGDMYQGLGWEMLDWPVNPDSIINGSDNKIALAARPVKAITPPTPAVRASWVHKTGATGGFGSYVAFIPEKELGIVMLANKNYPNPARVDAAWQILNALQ
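Enzyme, pH 7.0 phosphate. Compound titrations were pre-incubated with AmpC for 15 min at room temperature before nitrocefin (stock 800 uM) addition; product formation was recorded at 480 nm every 20 s for 4 min.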
Active calls of the source: *; & = joins results of further samples; [ ] = dose if it differs, or a comment. Potency is read from the fitted curve at half-maximal effect. These rows are one share of the data. The share of hits here may be higher or lower than overall.

mol	AmpC nodet inh
NC(N)=N/N=C\c1ccc(O)c(C(=O)O)c1	-0.9%[5.75 µM]
Cc1noc(C)c1S(=O)(=O)N1CCC(C(=O)NC2CCCc3ccccc32)CC1 (stereo unspecified)	13.1%
N#Cc1c(-c2ccccc2)nc(SCc2nc(N)nc(N3CCCCC3)n2)[nH]c1=O	-18.1%
Cc1cnc(CNc2ncnc3ccc(-c4cccc(NS(C)(=O)=O)c4)cc23)cn1	20.4%
COc1ccc(-n2c(=O)c(-c3ccc(Cl)cc3)nc3cnc(N4CCNCC4)nc32)cc1	79.6%
CNCc1ccc(OCc2ccccc2)c(OC)c1	-2.9%
CCC(=O)NC1(C(F)(F)F)C(=O)Nc2c1c(=O)n(C)c(=O)n2C (stereo unspecified)	1.3%
COCCn1cc(C(=O)c2ccccc2OCC(=O)Nc2cc(C)on2)cc(C#N)c1=O	0.6%

The list goes on.
mol	AmpC nodet inh
CC1=C(C(=O)OC(C)C)C(c2ccc(N(C)C)cc2)C2=C(CC(C)(C)CC2=O)N1 (stereo unspecified)	113.0%
Brc1ccccc1OCCCN1CCOCC1	6.9%
OCC1OC(n2nc3ccccc3n2)C(O)C(O)C1O (stereo unspecified)	-3.6%
Cc1cccc2c1nc(-c1ccccc1)n1cnnc21	27.9%
Cc1cc(-n2c(C)cc(C(=O)COc3ccc4ccc(=O)oc4c3)c2C)no1	19.3%
O=c1nc(N2CCCC2)nc(Nc2ccccc2)[nH]1	-8.4%
C=CCC(C#Cc1ccccc1)N(C)C (stereo unspecified)	13.7%
O=C(CSc1n[nH]c(-c2ccncc2)n1)c1ccccc1	1.3%

(continued)
mol	AmpC nodet inh
COc1ccc(NC(=O)CN(C)S(=O)(=O)c2cccc3cccnc23)cc1	-3.6%
CCC#N	-4.2%
NC(=O)c1oc2ccccc2c1NC(=O)c1nc2ccccc2s1	-15.7%
Cc1ccsc1C(=O)OCC(=O)c1cc2ccccc2o1	4.0%
Cc1ccc(OCCn2c(CCCO)nc3ccccc32)cc1	92.1%
COc1ccc(C2/C(=C(/O)c3ccccc3)C(=O)C(=O)N2CCN2CCOCC2)c(OC)c1 (stereo unspecified)	8.9%
Fc1cccc(Cl)c1Cn1nnc(-c2ccc3c(c2)OCO3)n1	7.4%
CCN1CCCC1CNC(=O)c1cc2c(-c3ccc(Cl)cc3)nn(C)c2s1 (stereo unspecified)	3.98µM*[single pt active]

Next section.
mol	AmpC nodet inh
COc1cc(Cl)c(C)cc1NC(=O)CSc1nc2ccccc2o1	-22.4%
CCn1c(CN2CCN(C(=O)c3ccco3)CC2)nc2c1c(=O)n(C)c(=O)n2C	-0.9%
COc1ccc(OC(C)C(=O)NCc2cccnc2)cc1 (stereo unspecified)	-11.9%
COc1ccc(NC(=O)COc2ccccc2)c(OC)c1	16.7%
O=c1c2cnn(-c3ccccc3)c2nnn1Cc1ccccn1	16.3%
O=C1C(Cl)=C(NCC2CCCO2)C(=O)N1CCc1ccccc1 (stereo unspecified)	14.7%
Cn1c2c(c(=O)n(C)c1=O)CN(CCCN1CCOCC1)CN2	5.9%
COc1ccc2c(c1)N(C[C@@H](C)CN(C)C)c1ccccc1S2	43.3%[12.8 µM]

The results go on:
mol	AmpC nodet inh
c1cncc(-c2nnc3n2N=C(c2cccs2)CS3)c1	1.1%
CN1C(=O)CC(n2c(CO)nc3ccccc32)C1=O (stereo unspecified)	-4.6%
CCC(=O)N1c2ccc(S(=O)(=O)CCC(=O)NCCC3=CCCCC3)cc2CC1C (stereo unspecified)	65.9%
Cn1cccc1C(=O)N1CCC2(CC1)CCN(c1ccccc1)CC2	115.6%
NC(=O)CSc1nc2ccccc2n1-c1ccccc1	31.9%
Clc1ccc(C(c2ccccc2Cl)C(Cl)Cl)cc1 (stereo unspecified)	-20.1%
COc1ccccc1CN1CC2(CCN(C(=O)c3ccncc3)CC2)C1	2.8%
Cc1cccc(CN(C)CCc2ccccn2)c1	-3.7%

Carrying on:
mol	AmpC nodet inh
CS(=O)(=O)N1CCC(C(=O)Nc2ccccc2F)CC1	-3.2%
c1cncc(Nc2nc(-c3ccncc3)cs2)c1	-1.5%
O=C1c2ccccc2C2(c3ccccc3)NCCN12 (stereo unspecified)	-3.5%
Cc1ccccc1NS(=O)(=O)c1ccc2[nH]cc(C(=O)N(C)Cc3ccco3)c(=O)c2c1	-14.4%
CCOCC(O)CSCc1ccc(Cl)cc1 (stereo unspecified)	7.3%
Cc1nn(Cc2ccc(Cl)cc2)c(C)c1NC(=O)c1cc(-c2ccc3c(c2)OCO3)on1	4.9%
CC(=O)O[C@@H]1CC[C@]2(C)[C@H]3CC[C@]4(C)[C@H](C[C@H]5CCCC[C@@]54C(C)=O)[C@@H]3CC(=O)[C@@]2(O)C1	22.8%
CCN1CCN(Cc2ccc(OCc3ccccc3)cc2)CC1	34.4%

The list goes on:
mol	AmpC nodet inh
Cc1[nH]c2ccccc2c1C1=CN2CCS(=O)(=O)N=C2S1	-2.3%
CN(C)CCOC(c1ccccc1)c1ccccc1	-1.4%[12.8 µM]
O=C(c1ccc2nc(N3CCOCC3)sc2c1)N1CCN(C(=O)c2ccco2)CC1	36.7%
CCc1cc2c(CN3CCN(CC)CC3)cc(=O)oc2cc1O	5.9%
CC1(C)CC(C#N)(N2CCOCC2)CCO1 (stereo unspecified)	6.5%
O=C(NCc1ccccn1)c1ccc2nc(-c3ccco3)c(-c3ccco3)nc2c1	52.9%
CCOC(=O)N1CCN(C(=O)c2cc(-c3ccc(F)cc3)[nH]c2C)CC1	116.9%
O=C(O)C/C=C\CC(=O)O	-0.2%[5.75 µM]

Next compounds
mol	AmpC nodet inh
O=C1CC(NCc2ccco2)C(=O)N1CCc1ccccc1 (stereo unspecified)	12.0%
Cn1c(=O)c(=O)n(C)c2cc(S(=O)(=O)N3CCN(c4cccc(C(F)(F)F)c4)CC3)ccc21	-2.6%
COCCNC(=O)c1cc(-c2ccc3c(c2)OCO3)on1	5.8%
N[C@@H](Cc1ccc(O)c(O)c1)C(=O)O	-10.6%[12.8 µM]
O=C(O)CC(O)C(=O)O (stereo unspecified)	-10.3%
CCCCN(CC)C(=O)c1ccc(Cl)c(Cl)c1	27.1%
CC1CCc2nc(NC(=O)CN3CCN(Cc4ccc5c(c4)OCO5)CC3)sc2C1 (stereo unspecified)	115.2%
O=[N+]([O-])c1cccc2c[nH]nc12	-4.6%

Next part.
mol	AmpC nodet inh
Cc1ccc(-c2c3c(=O)n(C)c(=O)n(C)c3cn2-n2cnnc2)cc1	-4.9%
O=S1(=O)CCN2C=Nc3sc4c(c3C2=N1)CCCC4	11.7%
CCN1CCN(CC(O)COc2ccc(C)c(C)c2)CC1 (stereo unspecified)	14.5%
COc1ccc(OC)c(CCNC(=O)Cn2sc3nc(C)cc(C)c3c2=O)c1	66.4%
CCN(Cc1ccccc1)C(c1cccc(C#N)c1)c1nnnn1C(C)(C)C (stereo unspecified)	50.7%
CCOC(=O)N1CCN(C(=O)c2ccc(N3C(=O)CCC3=O)cc2)CC1	-1.0%
Cc1cccc(C#Cc2ccccc2)n1	39.2%&12.4%
CCOc1ccc2nc(NC(=O)CSc3nc4c(c(=O)n(C)c(=O)n4C)n3CC)sc2c1	117.6%

Additional entries.
mol	AmpC nodet inh
Cc1nnc(N)nc1C	-10.6%
COc1ccc(-c2csc(N3CCOCC3)n2)cc1OC	55.8%
CCCCC[C@H](O)c1cccc(OCc2ccc3ccccc3n2)c1	-4.1%
Cc1ccc(OCCn2ccc(=O)[nH]c2=O)cc1C	-2.1%
Cc1ccc(C(=O)Nc2nc(COc3ccccc3)cs2)s1	-17.8%
c1c2c(cc3sc(N4CCCCC4)nc13)OCCO2	23.5%
COC(=O)CSc1nc2cc(OC)ccc2cc1C#N	11.2%
CCN(C1CCCCC1)S(=O)(=O)c1ccc(S(=O)(=O)N2CCN(CCC#N)CC2)cc1	131.6%

Three compounds from above, arranged by number of heavy atoms, largest number first:
mol	AmpC nodet inh
CCCCC[C@H](O)c1cccc(OCc2ccc3ccccc3n2)c1	-4.1%
COC(=O)CSc1nc2cc(OC)ccc2cc1C#N	11.2%
Cc1ccc(OCCn2ccc(=O)[nH]c2=O)cc1C	-2.1%

(next part)
mol	AmpC nodet inh
COCCNC(=S)c1ccc(OC)cc1	-11.7%
COC(=O)c1cccc(OCC(O)Cn2ccnc2)c1 (stereo unspecified)	-4.2%
Cn1c(=S)c2[nH]c(SCCN3CCCC3)nc2n(C)c1=O	1.4%[5.75 µM]
CCCN(CCC)c1nc(NC2CCN(C(=O)OCC)CC2)nc(OC)n1	88.5%
CC1CCCC(C)N1C(=O)COC(=O)c1ccc[nH]c1=O (stereo unspecified)	-0.5%
CC(=O)c1cccc(S(=O)(=O)NCC(c2ccco2)N2CCCCC2)c1 (stereo unspecified)	2.8%
O=C(O)Cc1cnc[nH]1	-4.8%
CCCCn1c(SCC(=O)Nc2nc(C)cs2)nnc1-c1cccnc1	24.9%

Looked up by compound from the entries so far:
mol	AmpC nodet inh
COCCNC(=S)c1ccc(OC)cc1	-11.7%
CC1CCCC(C)N1C(=O)COC(=O)c1ccc[nH]c1=O (stereo unspecified)	-0.5%
COC(=O)c1cccc(OCC(O)Cn2ccnc2)c1 (stereo unspecified)	-4.2%
CCCCn1c(SCC(=O)Nc2nc(C)cs2)nnc1-c1cccnc1	24.9%
Cn1c(=S)c2[nH]c(SCCN3CCCC3)nc2n(C)c1=O	1.4%[5.75 µM]
CC(=O)c1cccc(S(=O)(=O)NCC(c2ccco2)N2CCCCC2)c1 (stereo unspecified)	2.8%

(next part)
mol	AmpC nodet inh
O=C(Nc1nnc(-c2ccccc2)o1)c1ccc(Cl)cc1	-13.5%
Cc1oc(C)c(C(=O)Nc2ccc(CC(=O)O)cc2)c1C(=O)Nc1ccc(CC(=O)O)cc1	-10.5%
CC(Sc1nnc(-c2cc3ccccc3o2)n1-c1ccccc1)C(=O)O (stereo unspecified)	3.3%
C1CNC2NCCNC2N1 (stereo unspecified)	2.4%
CC(C)(C)C(=O)NC(=C(Cl)Cl)P(=O)(O)O	-7.9%
Cc1ccc(-c2nnc(-c3ccc(NC(=O)c4ccco4)cc3)o2)cc1	67.8%
Clc1ccc(-n2ncc3c(NCCN4CCOCC4)ncnc32)cc1	74.4%
CCC(C)OC(=O)C1=C(C)NC(=O)NC1c1ccc(F)cc1 (stereo unspecified)	12.3%

The listing continues.
mol	AmpC nodet inh
COC(=O)N1CC(=O)N(OC)C1c1ccc(Cl)cc1Cl (stereo unspecified)	14.1%
N#CCCn1c(=O)cnc2cnc(N3CCNCC3)nc21	-3.8%
COC(=O)CSc1nc2nc(C)cc(C)n2n1	-6.8%
c1ccc2c(c1)nnn2-c1ncnc2sc3c(c12)CCCC3	3.1%
O=C(O)c1ccc(C(=O)O)cc1	-17.2%
O=P(N[C@@H](c1ccccc1)[C@@H]1C[C@H]1CO)(c1ccccc1)c1ccccc1	110.2%
Cc1cc(C(C)c2ccccc2)c(O)c(CN2CCOCC2)c1C (stereo unspecified)	78.8%
Cc1cc(NC(=O)CSCc2nc(-c3cccc(Cl)c3)oc2C)no1	6.9%

Other compounds follow:
mol	AmpC nodet inh
CN(C)C(CNC(=O)c1cccnc1Sc1ccccc1)c1ccco1 (stereo unspecified)	-4.4%
CCC(C)NC(=O)Cn1c(=O)n(CCCCC(=O)NCc2ccco2)c(=O)c2ccccc21 (stereo unspecified)	9.4%
CCOCCCn1c(=N)c(C(=O)NCc2ccc3c(c2)OCO3)cc2c(=O)n3ccccc3nc21	38.8%
N#Cc1c(N)c(C#N)c(-c2ccc3c(c2)OCO3)c2c1CCCC2	-13.9%
O=c1[nH]c2c(s1)C=Nc1ccccc1N2	-2.5%
Cc1noc(NS(=O)(=O)c2ccc(NC(=O)CSc3nc4ccccc4s3)cc2)c1C	-23.8%
CCC(C)(C)n1nnnc1C(c1cc2ccc(C)cc2[nH]c1=O)N(Cc1cccnc1)Cc1ccco1 (stereo unspecified)	100.5%
COc1cccc(CNC(=O)c2ccc(NC(=O)C3CCCO3)cc2)c1 (stereo unspecified)	-1.3%

(list continues)
mol	AmpC nodet inh
COC(=O)[C@@]1(Cc2ccc(F)cc2)[C@H]2c3cc(C(=O)N4CCCC4)n(Cc4ccc(S(C)(=O)=O)cc4)c3C[C@H]2CN1C(=O)c1ccccc1	148.0%
CCOC(=O)Cn1c(=O)oc2cc(S(=O)(=O)NCCc3ccc(C)cc3)ccc21	8.3%
CCc1nnc(NC(=O)c2ccc(S(=O)(=O)N(CC)CC)cc2)s1	14.3%
O=C1C2CCCN2C(c2ccc(Cl)cc2)N1c1ccccn1 (stereo unspecified)	12.7%
O=C(COc1cccc2cccnc12)N1CCc2ccccc2C1	24.2%
c1ccc(COc2ccc(OCCCn3cncn3)cc2)cc1	67.2%
O=C(O)c1cccc(OCc2ccccc2Cl)c1	-7.5%
Cc1ccccc1-n1c(SCC(=O)c2cc(C)n(C)c2C)nnc1-c1ccncc1	138.6%

Next part:
mol	AmpC nodet inh
O=C(Nc1ncc(Cc2ccccc2)s1)C1CCCO1 (stereo unspecified)	15.1%
CCCOc1cccc(NC(=O)c2c(-c3ccccc3)noc2C)c1	4.0%
CC[C@H](C)[C@H](NS(=O)(=O)c1ccc(C)cc1)C(=O)N1CCC(C(=O)N[C@H](C(=O)O)C(C)C)CC1	-1.9%
COc1ccc(C)cc1NC(=O)c1ccc(S(=O)(=O)N2CCOCC2)cc1	49.0%
COc1cc2c(cc1OC)-c1cc(Nc3ccc4c(c3)OCCO4)nc(=O)n1CC2	21.0%
COc1ccc(Cl)cc1S(=O)(=O)N1CCN=C1C	13.7%
CC(=O)c1cccc(NC(=O)CCNS(=O)(=O)c2cccc3nsnc23)c1	-10.1%
COc1ccc(-c2nn(C)c3sc(C(=O)N4CCOCC4)cc23)cc1OC	70.3%
